High-throughput results from PubChem BioAssay.
PrP 5UTR inh: inhibition of PrP 5' UTR reporter expression; hit rate 0.35% among 340,000; cell-based PrP 5' UTR mRNA reporter, plate reader; inhibition, % (test concentration not listed);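 active means every replicate at 50% or more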;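 further: 0 = median of the neutral control wells; tested in H4 reporter cells; numbers are from one replicate; inactives centre near -14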
Autofluor counter: flagged as autofluorescent in microsphere protease counterscreen; AID 624483; compound autofluorescence counterscreen, microsphere flow cytometry; stronger effect = higher value; fluorescence intensity (concentration not given with the values); hit rate 3.1% among 360,000;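 active means at least 3 SD above the mean of all compounds, about 16000 in these data; inconclusive means too few beads counted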;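 further: 100 nL of 1 mM stock went into each well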
Mtb hypoxia inh: PubChem AID 1159583. M. tuberculosis hypoxia-regulated fluorescent reporter, fluorescence. hit rate 0.1% among 300,000. fluorescence inhibition, % (no concentration beside the values);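 active means 35 to 45% if threefold the growth effect, above 45% if 1.5-fold the growth effect; inactive means the rest, general growth blockers included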;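 further: wells of about 50 µL received 100 nL stock; 0% = vehicle wells and 100% = reference inhibitor wells; whole bacteria with a GFP reporter of the hypoxia response; strong numbers were not always called active; many hits fall short of the cut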
Sa ugtP lethal: growth inhibition of ugtP-null S. aureus, primary screen, RN4220 ugtP deletion, OD600. AID 1259309, 2017. hit rate 0.54% among 330,000. growth inhibition, % (test concentration not listed). 16 h; some inactives read as strong as hits;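 active means z-score under -3 and OD600 up to 0.15 on both plates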;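 further: plate controls were untreated wells for no effect and antibiotic for full effect; wells of about 80 µL received 100 nL stock; the first replicate is given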
BJeLR lethal: MLPCN primary cell-based screen for lethality selective to Ras in HRASV12 cells; BJeLR (HRASV12) viability, CellTiter-Glo ATP luminescence, 48 h; reference of the scale not given here; inhibition, % (concentration not given with the values); hit rate 0.17% among 300,000;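 active means replicate mean above 50%; inconclusive means above 50% but judged a plate artefact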;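 further: 50 nL library stock added to about 25 µL; numbers are from one replicate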
Sa RN4220 lethal: growth inhibition of S. aureus RN4220, primary screen, OD600; 16 h; AID 1259311, 2017; hit rate 0.33% among 330,000; inhibition, % (no concentration beside the values);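 active means z-score of -3 or lower and OD600 up to 0.18 on both plates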;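 further: plate controls were untreated cells for no effect and reference antibiotic for full effect; stock transfer was 100 nL into about 80 µL; one replicate is shown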
Mtb hypoxia inh growth: recorded beside Mtb hypoxia inh, whose call it bears; growth inhibition, %; measured here: M. tuberculosis growth (absorbance);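 0% = vehicle and 100% = reference antibiotic; read after six days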
* hit, by the source's call; ? = inconclusive; / = not tested or not shown; & = joins results of further samples.

SMILES	PrP 5UTR inh	Autofluor counter	Mtb hypoxia inh	Mtb hypoxia inh growth	Sa ugtP lethal	BJeLR lethal	Sa RN4220 lethal
O=C(NCC1c2ccccc2CCN1C(=O)CN1CCOCC1)C1CCCCC1 (stereo not given)	-4	2867	7	6	-3	12	-3.2
COC(=O)C1CCN(C(=O)NC(C)(C)C)CC1	7	5044	7	8	-4	-14	5.9
CCCN(CCC)c1ccc(C(O)c2nnc(-c3ccccc3)o2)cc1 (stereo not given)	-10	5083	15	9	7	0	8.2
Cc1ccccc1NC(=O)CSc1nc2ccccc2c2nc(CCn3cncc3C)nn12	-20	8333	3	2	9	11	4.2
COc1cccc(-c2nn(-c3ccccc3)cc2CN(C)Cc2ccon2)c1	-24	2874	10	3	5	-7	3.2
Oc1[nH]c2ccc(Br)cc2c1N=Nc1nn[nH]n1	-9	4640	3	0	0	-2	2.5
N#CC(=Cc1ccncc1)c1nc2ccccc2[nH]1	/	/	7	-2	11	/	4.4
Cc1ccc(OCCC(=O)OCC(=O)Nc2ccc(C)c(S(=O)(=O)N3CCOCC3)c2)cc1	0	2822	14	5	9	/	4.8
Cn1cc(C(=O)NCC2COc3ccccc3O2)c(=O)c2cc(S(=O)(=O)N3CCCCC3)ccc21 (stereo not given)	-13	9482	-9	-12	-12	-11	-3.9
COc1ccc(O)c(CN2CCN(C/C=C/c3ccccc3)CC2)c1	-18	24344*	6	1	13	5	2.1
CCOc1ccc(-n2c(-c3ccoc3)nc3ccccc3c2=O)cc1	-17	10079	3	13	14	6	3.9
O=C(Nc1cccc(S(=O)(=O)N2CCCC2)c1)c1cc(=O)[nH]c2ccccc12	-26	4018	-5	-1	0	/	0.3
CCOC(=O)c1ccc(NC(=S)N(CCCN2CCN(CC)CC2)Cc2cccs2)cc1	-30	3139	9	-4	-1	9	1.9
CC(C)C(C(=O)OCC(=O)c1ccccc1)N1C(=O)C2C3C=CC(C3)C2C1=O (stereo not given)	-30	2521	17	0	8	-2	3.7
COc1cccc2c1OC1(C)CC2NC(=O)N1Cc1ccccc1 (stereo not given)	-8	9081	0	6	-3	-8	-1.2
CN(C)CCNC(=O)Nc1ccc(Cl)c(Cl)c1	-5	24214*	3	3	-45	-10	-1.9
CSc1cc(-c2ccc(Cl)cc2)[nH]c(=O)c1C#N	3	2428	7	7	0	-1	4.1
O=C(NCCc1c[nH]c2ccccc12)C(=O)NCC1OCCCN1S(=O)(=O)c1cc(F)ccc1F (stereo not given)	-17	2449	-4	6	-4	-4	3.8
CC1CCCCN1C(=O)C(Cc1ccccc1)N1C(=O)C2CCCCC2C1=O (stereo not given)	-5	2308	-12	1	-9	18	5.0
CCC(=O)N(Cc1ccco1)C1CC(=O)N(c2ccccc2)C1=O (stereo not given)	-24	1960	7	4	-4	-14	1.9
CCCOC1OC(=O)c2c1ccc(OC)c2OC (stereo not given)	-18	2279	4	3	1	11	1.5
COc1cc2ccccc2cc1C(=O)N1CCN(C)CC1	-17	6423	7	0	-1	-12	2.8
Cc1ccc2cc(CCNC(=O)CCCc3ccccc3)c(=O)[nH]c2c1C	-12	5324	1	4	-4	4	9.0
NC(=O)[C@@H]1CCCNc2c(F)cc([N+](=O)[O-])cc2C(=O)N[C@@H](CO)C(=O)N[C@@H](Cc2ccc(O)cc2)C(=O)N1	-21	3139	/	/	/	2	/
CCOC(=O)N1CCN(S(=O)(=O)c2ccc3c(c2)NC(=O)CO3)CC1	-35	3820	1	16	6	/	3.5

(next part)
SMILES	PrP 5UTR inh	Autofluor counter	Mtb hypoxia inh	Mtb hypoxia inh growth	Sa ugtP lethal	BJeLR lethal	Sa RN4220 lethal
CC(CN1CCCCC1)OC(=O)c1ccccc1F (stereo not given)	-13	3134	-3	-24	1	-11	1.8
Cc1ccc2c(c1)COc1c3ccc(C(=O)N4CCOCC4)cc3nn1-2	-64	3486	6	5	-1	6	6.8
COC(=O)c1ccc(COc2ccc(C=NN3CCN(C)CC3)cc2)cc1	/	/	6	6	7	/	3.0
COc1ccc(C(=O)N2CCC(C(=O)N3CCN(c4ccccc4)CC3)CC2)cc1	-11	5476	-1	8	5	7	1.3
O=C(c1ccc(Cn2c(=S)[nH]c3cc4c(cc3c2=O)OCO4)cc1)N1CCN(c2ccccc2)CC1	-20	3137	-3	27	-3	-3	-3.7
C/C(=N/NS(=O)(=O)c1ccc(Cl)cc1)c1cccc(NC(=O)c2ccncc2)c1	-21	7925	/	/	/	-4	/
CCOc1ccc(C(=O)OCC(=O)Nc2ccc3c(c2)OCCO3)cc1OC	/	?	7	10	3	/	1.8
c1ccc2cc(Cn3ccnc3)ccc2c1	-24	3053	19	-4	-3	20	1.4
CC(C)N(C(=S)NC1CCCCC1)c1ccccc1	/	/	13	2	6	6	4.3
COCCCNCCOc1ccccc1-c1ccccc1	-14	2449	18	8	0	4	1.5
Fc1ccccc1Nc1nc(NCc2ccco2)nc(N2CCOCC2)n1	-11	2683	11	0	-2	-4	6.3
CCOC(=O)N1CCN(C(=O)c2ccc3nc4ccsc4c(=O)n3c2)CC1	-19	5275	/	/	3	-4	1.7
O=C(Nc1cc2ccccc2oc1=O)C1CCCCC1	-65	7734	8	4	-1	-4	-2.4
COC(=O)c1ccccc1NC(=O)Cn1ccnc1	-15	4416	11	8	-3	12	5.9
Cc1ccc(CN2CCN(Cc3cccc(-n4cccn4)c3)CC2CCO)cc1 (stereo not given)	-8	2629	-2	2	-2	0	5.2
O=c1[nH]c(Nc2nc3ccccc3o2)nc2c1CCCC2	7	10208	12	11	-5	28	2.6
O=C(COC(=O)CNC(=O)c1ccc(Cl)cc1)Nc1ccc(Cl)cc1C(F)(F)F	-17	9116	/	/	/	5	/
N/C(=N\OC(=O)C1CCCCC1)c1ccc(Br)cc1	-15	2776	20	3	7	-1	1.4
COc1ccc(S(=O)(=O)N2CCCOC2CNC(=O)C(=O)NCCc2ccco2)cc1 (stereo not given)	13	6071	-3	-1	4	4	1.3
NC(=O)Cc1ccc(Nc2nnc(-c3ccc(O)cc3)c3ccccc23)cc1	-14	2561	10	11	1	2	0.7
O=C1CC(c2cccs2)c2cc3c(cc2N1)OCO3 (stereo not given)	-5	23380*	-5	2	-6	11	3.8
Cc1cccc(C)c1NC(=O)CCS(=O)(=O)c1cccc2nsnc12	2	9100	4	5	0	3	2.9
COc1ccc(OCC(O)CNC(=O)c2cccc3c2C(=O)c2ccc(-c4ccc(F)cc4OCc4ccccc4)cc2S3(=O)=O)cc1 (stereo not given)	/	/	15	9	7	/	9.3
Cc1ccc(-n2ncc3c(NNC(=O)Cc4ccccc4)ncnc32)cc1	-5	1920	0	3	-3	-1	2.7
CC(C)Oc1ccc(C(CC(=O)O)NC(=O)c2cccs2)cc1 (stereo not given)	-12	7986	9	-2	5	-2	3.7

Next part.
SMILES	PrP 5UTR inh	Autofluor counter	Mtb hypoxia inh	Mtb hypoxia inh growth	Sa ugtP lethal	BJeLR lethal	Sa RN4220 lethal
CCOc1ccc2nc(N3CCCC(C(=O)N4CCN(CC)CC4)C3)sc2c1 (stereo not given)	1	6103	4	9	-7	-3	4.9
CCn1cc(C(=O)N2CCN(c3ccc([N+](=O)[O-])cc3)CC2)c(=O)c2ccc(C)nc21	-16	5960	5	9	2	-5	0.1
CCS(=O)(=O)Nc1cccc(C(=O)CC2(O)C(=O)Nc3ccccc32)c1 (stereo not given)	-12	3861	7	-12	9	0	-1.1
CCC(C)NC(=O)Cn1nc(C(F)(F)F)c2c1CCCC2 (stereo not given)	-16	3167	/	/	8	2	4.7
COCCCNC(=O)Cn1cnc2sc(C)c(S(=O)(=O)N3CCN(c4ncccn4)CC3)c2c1=O	3	2070	2	-1	-3	1	5.8
Cc1ccccc1NC(=S)N(Cc1cccs1)C1CCCCC1	0	3098	8	11	7	5	12
O=c1c(C(c2ccc(Cl)cc2)c2c(O)nc3n(c2=O)CCS3)c(O)nc2n1CCS2	-4	3683	0	-18	6	0	1.2
COc1cc(OC)cc(-c2nnc(SCc3cccc(C(=O)O)c3)o2)c1	-5	22846*	4	0	-3	-6	6.7
CCN(c1cccc(C)c1)S(=O)(=O)c1ccc2c(c1)oc(=O)n2C	-32	4061	17	9	-7	4	5.9
CN(Cc1ccccc1)C(=O)COC(=O)C1CCN(S(=O)(=O)c2ccc3c(c2)OCCO3)CC1	2	/	5	2	0	3	2.6
CCOc1ccc(N2C(=O)c3cccnc3C2Nc2ccc(Cl)cc2)cc1 (stereo not given)	-42	21889*	3	11	-8	6	3.7
CN(CCC#N)C(=O)COC(=O)C1c2ccccc2Oc2ccccc21	-24	5802	5	4	2	0	4.5
O=C(Nc1ccc(F)cc1)c1cccc(N2C(=O)c3ccccc3C2=O)c1	-17	3810	5	10	4	-10	2.0
Cc1nn2c(N3CCN(C)CC3)c3c(nc2c1-c1ccccc1)CCCC3	/	/	21	25	0	1	-1.6
CC(=O)c1cccc(NC(=S)NC(=O)Cc2ccccc2)c1	-22	2632	3	7	4	-3	-1.1
CC1CCCC(C)N1CCCNC(=O)C(=O)Nc1ccc2nc3n(c(=O)c2c1)CCCCC3 (stereo not given)	-6	5454	-7	0	0	-8	3.6
Cc1cccc(NC=Cc2onc(C)c2[N+](=O)[O-])c1	/	/	21	4	-4	/	7.8
O=C1N/C(=C/c2ccsc2)C(=O)N1c1ccccc1	-49	2364	16	10	3	3	-7.2
COC(=O)c1ccccc1N=Cc1c(O)[nH]c(=O)[nH]c1=O	-2	3521	14	6	2	1	1.9
Cc1ccc2c(c1)C(O)(c1c(C)[nH]c3ccccc13)C(=O)N2 (stereo not given)	-27&-10	2977	/	/	-11	9	5.9
O=C1N(CN2CCOCC2)c2ccccc2C1(O)c1c[nH]c2ccccc12 (stereo not given)	-22	4392	2	3	-4	-5	-0.7
Cc1ccccc1Cn1nnc(-c2ccc3c(c2)OCO3)n1	-56	2460	6	7	30	2	-5.9
CCCC1C(=O)Nc2ccccc2N1C(=O)c1ccc(C(C)(C)C)cc1 (stereo not given)	-4	3018	7	-2	-4	3	-3.2
O=C(CN1C(=O)CSC1=O)Nc1ccc(F)c(F)c1F	-22	9466	-2	2	-4	1	2.3

Three entries from above, sorted by length of the SMILES, high to low:
SMILES	PrP 5UTR inh	Autofluor counter	Mtb hypoxia inh	Mtb hypoxia inh growth	Sa ugtP lethal	BJeLR lethal	Sa RN4220 lethal
CN(Cc1ccccc1)C(=O)COC(=O)C1CCN(S(=O)(=O)c2ccc3c(c2)OCCO3)CC1	2	/	5	2	0	3	2.6
CC1CCCC(C)N1CCCNC(=O)C(=O)Nc1ccc2nc3n(c(=O)c2c1)CCCCC3 (stereo not given)	-6	5454	-7	0	0	-8	3.6
Cc1ccccc1NC(=S)N(Cc1cccs1)C1CCCCC1	0	3098	8	11	7	5	12

Gathered by group, those above containing an aryl methoxy group.
SMILES	PrP 5UTR inh	Autofluor counter	Mtb hypoxia inh	Mtb hypoxia inh growth	Sa ugtP lethal	BJeLR lethal	Sa RN4220 lethal
COc1cccc(-c2nn(-c3ccccc3)cc2CN(C)Cc2ccon2)c1	-24	2874	10	3	5	-7	3.2
COc1ccc(O)c(CN2CCN(C/C=C/c3ccccc3)CC2)c1	-18	24344*	6	1	13	5	2.1
COc1cccc2c1OC1(C)CC2NC(=O)N1Cc1ccccc1 (stereo not given)	-8	9081	0	6	-3	-8	-1.2
CCCOC1OC(=O)c2c1ccc(OC)c2OC (stereo not given)	-18	2279	4	3	1	11	1.5
COc1cc2ccccc2cc1C(=O)N1CCN(C)CC1	-17	6423	7	0	-1	-12	2.8
COc1ccc(C(=O)N2CCC(C(=O)N3CCN(c4ccccc4)CC3)CC2)cc1	-11	5476	-1	8	5	7	1.3
CCOc1ccc(C(=O)OCC(=O)Nc2ccc3c(c2)OCCO3)cc1OC	/	?	7	10	3	/	1.8
COc1ccc(S(=O)(=O)N2CCCOC2CNC(=O)C(=O)NCCc2ccco2)cc1 (stereo not given)	13	6071	-3	-1	4	4	1.3
COc1ccc(OCC(O)CNC(=O)c2cccc3c2C(=O)c2ccc(-c4ccc(F)cc4OCc4ccccc4)cc2S3(=O)=O)cc1 (stereo not given)	/	/	15	9	7	/	9.3
COc1cc(OC)cc(-c2nnc(SCc3cccc(C(=O)O)c3)o2)c1	-5	22846*	4	0	-3	-6	6.7
